Sa growth inh: inhibitors of Staphylococcus aureus growth at 42 °C | relative growth, % (concentration not given with the values) | S. aureus RN4220 growth, OD600, 20 h; active compounds read low | 170,000 tested, 0.53% active;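 active = growth at 42 °C up to 50% and 20 or more points under that at 30 °C, or under 10% at both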;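 note: 300 nL library stock went into each well; scaled to the means of positive and negative controls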
HCMV UL50-53 inh: cytomegalovirus nuclear egress complex inhibition; HTRF UL50-UL53 interaction, normalized percent inhibition; AID 1918969; 190,000 tested, 0.15% active; inhibition, % (concentration not given with the values);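 active = both replicates at 50% or more, plus weaker picks with an unusually low signal ratio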;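 note: stock transfer was 100 nL into about 20 µL; 0% = negative control wells and 100% = wells with untagged competitor protein; inactives centre near -12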
GIV Gai3 FP: GIV-Galpha-i interaction inhibition. percent of control (FP), % (concentration not given with the values). Galpha-i3/FITC-GIV peptide fluorescence polarization, 90 min; active compounds read low; scaled: aluminum fluoride 0%, vehicle 100%. 210,000 tested, 0.42% active. P08753. AID 1224905;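 active = replicate mean at 85% of control or lower, very high polarization wells dropped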;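 note: wells of about 15 µL received 100 nL stock; the first replicate is given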
Target sequence (P08753 whole entry, looked up): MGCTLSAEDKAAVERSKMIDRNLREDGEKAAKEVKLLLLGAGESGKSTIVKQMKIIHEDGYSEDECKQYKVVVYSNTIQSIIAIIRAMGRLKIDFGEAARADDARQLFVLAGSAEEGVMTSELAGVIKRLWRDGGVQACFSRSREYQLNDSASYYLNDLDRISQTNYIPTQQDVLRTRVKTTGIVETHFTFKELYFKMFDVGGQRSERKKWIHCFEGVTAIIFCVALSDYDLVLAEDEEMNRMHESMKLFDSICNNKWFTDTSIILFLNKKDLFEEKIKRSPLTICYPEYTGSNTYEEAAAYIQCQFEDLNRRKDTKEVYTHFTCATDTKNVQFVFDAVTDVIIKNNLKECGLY
Sa growth inh second temp: also measured in Sa growth inh; calls as there; relative growth, %; measured here: growth at 30 °C;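 optical density after 20 h as mean of two plates; 100% = untreated growth and lower means inhibition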
* = called active by the depositor; . = no result given; & = joins results of further samples.

SMILES	Sa growth inh	Sa growth inh second temp	HCMV UL50-53 inh	GIV Gai3 FP
Cc1nn(CCc2nc(-c3ccco3)cs2)c2nc(-c3cccs3)cc(C(F)(F)F)c12	99	99	16	.
CCn1c(CNC(=O)c2ccc(OC)cc2)nnc1SCC(=O)Nc1cccc(C)c1C	95	96	22	107
C/C(=N/NC(N)=O)C1(O)CCCCC1	92	90	-7	104
CCN(CC)C(=O)Cn1c(=O)n(Cc2ccc(C(=O)NC(C)C)cc2)c(=O)c2cc(OC)c(OC)cc21	.	.	4	106
COc1ccc(NC2=CC(=O)N(c3ccc(OC)cc3)C2=O)cc1	112	103	-4	104
Cc1cccc(N2CCN(C(c3ccccc3)c3nnc(-c4ccccc4Cl)o3)CC2)c1C (stereo unspecified)	108	89	-7	98
Cc1ccc2nc(N3CCN(c4cccc(C)c4C)CC3)c3nnnn3c2c1	111	90	-4	108
O=C(c1ccccc1)N1CCCC(C(=O)N2CCC(Cc3ccccc3)CC2)C1 (stereo unspecified)	94	87	-20	108&95
CC1CCN(c2oc(-c3cccs3)nc2S(=O)(=O)c2ccccc2)CC1	86	81	-36	104
COC(=O)CNS(=O)(=O)c1ccc(Oc2ccc(S(=O)(=O)NCC(=O)OC)cc2)cc1	95	78	-26	98
COC(=O)c1cc2sc(C)cc2n1CC(=O)NCCc1ccccc1	101	91	-11	104
Cc1ccc(NC(=O)C2CCCN(S(=O)(=O)c3c(C)nn(C)c3C)C2)c(C)c1 (stereo unspecified)	89	91	-12	102
CCCCCOC(=O)C1=C(C)NC2=C(C(=O)CCC2)C1c1cc(OC)c(OC)cc1Br (stereo unspecified)	.	.	6	110
CCOC(=O)CNc1ncnc2scc(-c3ccccc3)c12	108	81	6	.
O=C(O)CC(CP(c1ccccc1)c1ccccc1)C(=O)O (stereo unspecified)	112	77	-10	102
C=CCn1c(=O)c2ccc(C(=O)NCc3ccc4c(c3)OCO4)cc2n(Cc2c(C)cc(C)cc2C)c1=O	.	.	-24	99
COc1ccc(OCc2ccc(-c3nc(C#N)c(N4CCN(c5cccc(Cl)c5)CC4)o3)o2)cc1	107	94	1	99
CCOC(=O)C1CCN(C(=O)C2CCN(C3=NS(=O)(=O)C(c4ccc(C)cc4)=C3CC)CC2)CC1	95	96	-21	104
O=C(NCc1ccccc1)c1ccc(NC(=O)N2CC3CCCN3c3ccccc32)cc1 (stereo unspecified)	96	89	-11	105
Cc1ccccc1OCCSc1nc2ccc(NC(=O)c3ccccc3)cc2s1	103	96	1	95
CCC(C)C(=O)Nc1ccc(-c2nc3ccccc3o2)cc1 (stereo unspecified)	121	106	-7	106
Cc1ccc(Nc2c(-c3ccccn3)nc3ccc(Br)cn23)cc1	88	94	-11	106
CC1Cc2ccccc2N1C(=O)CSc1nnc2c(n1)[nH]c1ccccc12 (stereo unspecified)	137	95	-38	102
Clc1ccc(OCc2noc(-c3ccsc3)n2)cc1	74	94	0	103
Cc1ccc(NC(=O)NC(=O)CN2C(=O)C3CC=CCC3C2=O)c(C)c1 (stereo unspecified)	97	87	-18	.
SMILES	Sa growth inh	Sa growth inh second temp	HCMV UL50-53 inh	GIV Gai3 FP
Cn1nnnc1SCC(=O)N1CCCC1c1ccc2c(c1)OCCCO2 (stereo unspecified)	106	93	-22	.
Cc1ccc2c(=O)c(C(=O)c3ccc(Cl)cc3)cn(CC(=O)NCC3CCCO3)c2n1 (stereo unspecified)	.	.	-4	110
COc1ccc(CNC(=O)CN(c2cc(C)cc(C)c2)S(=O)(=O)c2c(C)[nH]c(=O)[nH]c2=O)cc1	105	85	-33	105
O=C(Cn1nc(-c2ccccc2)ccc1=O)Nc1ccc(F)cc1	106	94	-46	103
COc1ccc2cc(CNc3ccccc3)c(=O)n(CC(=O)Nc3ccc(C)cc3C)c2c1	99	82	.	101
Cc1cc2ccccc2n1CCNC(=O)c1cc(C(F)(F)F)cc(C(F)(F)F)c1	85	102	1	111
Cc1cc2c(C)cc(=O)oc2c2c1NCCC2	124	82	-33	95
CCSCC1COC(c2cccn2Cc2ccc(Cl)cc2)=N1 (stereo unspecified)	.	.	-28	103
CN(C)c1oc(-c2ccc(S(=O)(=O)N3CCOCC3)cc2)nc1C#N	.	.	-32	102
COc1ccc(C(O)c2nnc(-c3ccccc3)o2)cc1OC (stereo unspecified)	91	93	-4	.
N#CCCn1nnc2ccccc21	102	88	.	99
CCC(=O)Nc1c2c(nn1-c1ccc(C)cc1)CS(=O)C2 (stereo unspecified)	102	82	.	100
Cc1nn(C(=O)Nc2ccc3c(c2)OCCO3)c2ccccc12	.	.	-13	100
CC1(O)CCOCC1NC(Cc1cc2ccccc2[nH]1)C(=O)O (stereo unspecified)	94	92	-18	.
N#Cc1ccc(Cn2cccn2)cc1	81	93	-8	.
CCN(CC)CC(=O)O	78	85	-29	97
O=C1OC(/C=C/c2ccccc2)=NC/1=C/c1ccco1	98	84	.	137
Cc1cc(=O)[nH]c(SCSc2nc(C)cc(=O)[nH]2)n1	85	100	20	106
CC(=O)NC1C(=O)N=C(SCc2ccccc2)NC1=O (stereo unspecified)	83	90	9	.
Cn1nccc1C(=O)N1CCC(c2nc(-c3ccc(Cl)cc3)no2)CC1	.	.	8	103
O=C(O)CSc1n[nH]c(-c2ccccc2)n1	.	.	-11	101
Cc1cccc(CS(=O)(=O)c2ccc(Cl)cc2)c1F	88	85	-14	100
Cc1ccc(C)c(N2CCN(C(=O)c3nnc(-c4oc5ccc(C)cc5c4C)o3)CC2)c1	.	.	-20	105
CC1(C)C(=O)C2(C(=O)NCCc3ccccc3)CCC1C2 (stereo unspecified)	107	96	-14	103
Cc1cc(C)n2cc(CSC3CCCC3)nc2n1	87	74	-34	.

Single records, as listed above. Order of screens: Sa growth inh | Sa growth inh second temp | HCMV UL50-53 inh | GIV Gai3 FP
Profile of O=C1OC(/C=C/c2ccccc2)=NC/1=C/c1ccco1 → 98 | 84 | . | 137
Profile of Cc1ccc2c(=O)c(C(=O)c3ccc(Cl)cc3)cn(CC(=O)NCC3CCCO3)c2n1 (stereo unspecified) → . | . | -4 | 110
Profile of CC1(O)CCOCC1NC(Cc1cc2ccccc2[nH]1)C(=O)O (stereo unspecified) → 94 | 92 | -18 | .
Profile of Cc1nn(C(=O)Nc2ccc3c(c2)OCCO3)c2ccccc12 → . | . | -13 | 100
Profile of Cc1ccc(C)c(N2CCN(C(=O)c3nnc(-c4oc5ccc(C)cc5c4C)o3)CC2)c1 → . | . | -20 | 105

Reprinted at random: 7 compounds from above
SMILES	Sa growth inh	Sa growth inh second temp	HCMV UL50-53 inh	GIV Gai3 FP
N#Cc1ccc(Cn2cccn2)cc1	81	93	-8	.
O=C(O)CSc1n[nH]c(-c2ccccc2)n1	.	.	-11	101
Cc1cccc(CS(=O)(=O)c2ccc(Cl)cc2)c1F	88	85	-14	100
Cn1nnnc1SCC(=O)N1CCCC1c1ccc2c(c1)OCCCO2 (stereo unspecified)	106	93	-22	.
Cc1ccc(C)c(N2CCN(C(=O)c3nnc(-c4oc5ccc(C)cc5c4C)o3)CC2)c1	.	.	-20	105
Cc1cc(C)n2cc(CSC3CCCC3)nc2n1	87	74	-34	.
CN(C)c1oc(-c2ccc(S(=O)(=O)N3CCOCC3)cc2)nc1C#N	.	.	-32	102

(cont.)
SMILES	Sa growth inh	Sa growth inh second temp	HCMV UL50-53 inh	GIV Gai3 FP
O=C(c1cn(-c2ccccc2)nc1-c1cccs1)N(CCO)c1ccccc1	99	95	0	.
Cc1ccccc1-c1nc(CSCC(=O)NC(C)c2ccc3c(c2)OCCO3)c(C)o1 (stereo unspecified)	130	95	3	102
CC(=O)O[C@]1(C(=O)CO)CCC2C3CCC4=CC(=O)CC[C@]4(C)C3[C@@H](O)C[C@@]21C (stereo partly specified)	107	92	-11	.
Cc1nn(C)c2nc(OC(C)C(=O)Nc3ccc(F)cc3)cc(C(F)(F)F)c12 (stereo unspecified)	.	.	-28	102
CCCCc1nc2sc3c(NCc4ccccc4)ncnc3c2c2c1COC(C)(C)C2	100	83	.	104
CCC(C)NC(=O)c1ccc2c(=O)n(C3CC3)c3n[nH]c(=O)n3c2c1 (stereo unspecified)	.	.	-36	100
Cc1occc1C(=O)N/N=C/c1cn(-c2ccccc2)nc1-c1ccccc1	92	76	-33	.
CCn1cc(C(=O)O)c(=O)c2cnc(N3CCN(C(=S)NCc4ccccc4)CC3)nc21	64	3	-22	101
Nc1ccc(C(c2ccc(N)cc2)C2NC(=O)c3ccccc32)cc1 (stereo unspecified)	97	104	-4	.
COc1ccc(C2C(C(=O)N(C)c3ccc(C(C)C)cc3)CC(=O)N2c2ccc(OC)cc2)cc1 (stereo unspecified)	66	71	.	101
O=c1nc2c(-c3ccccc3)n[nH]n2c2ccccc12	118	95	-7	99
Cc1cccc(C(=O)NC(=S)Nc2ccc(N3CCN(C)CC3)cc2)c1	85	76	-8	102
Cc1[nH]nc2c1C(c1ccc(C(C)(C)C)cc1)N(c1ccc(Br)cc1)C2=O (stereo unspecified)	.	.	-4	101
Cc1ccc(Oc2nnc(-c3cccs3)c3ccccc23)cc1	100	88	.	95
Brc1ccc([C@H]2CN3CCSC3=N2)cc1	.	.	-18	99
CN(C)c1ccc(C(CNC(=O)Cc2ccc(F)cc2)N2CCOCC2)cc1 (stereo unspecified)	.	.	-34	103
CCCCNc1c2c(nc3ccccc13)CC(C)(C)CC2O (stereo unspecified)	97	83	-25	101
COC(=O)c1nnc2nc(-c3ccc(Cl)cc3)cc(C)n12	85	92	-42	.
CCCn1c(-c2ccncc2)n[nH]c1=S	91	87	-18	102
O=c1cc(O)c2ccccc2n1Cc1ccccc1F	106	85	-20	102
COc1cccc(CNC(=O)CCc2c(C)nn(-c3ccc(N4CCCC4)nn3)c2C)c1	87	84	.	98
COc1ccccc1/C=C/C(=O)OCC(=O)N1CCCCC1	104	93	-6	.
Cc1cc(NC(=O)Cc2cc(F)cc(F)c2)no1	102	86	3	101
CC1CCCCC1NC(=O)c1cc2sccc2n1C (stereo unspecified)	102	86	2	106
COc1ccc(NC(=O)C(=O)NCC2(c3ccccc3)CCCC2)c(OC)c1	83	93	9	100
SMILES	Sa growth inh	Sa growth inh second temp	HCMV UL50-53 inh	GIV Gai3 FP
CN(Cc1ccccc1)C(=O)c1cn(C)c2ccc(S(=O)(=O)N(C)C3CCCCC3)cc2c1=O	102	90	-26	103
COc1cccc2cc(C(=O)NC3=C(C#N)CCC3)c(=O)oc12	94	105	-4	100
O=C(Cn1c(=O)oc2ccccc21)N(C1CCCCC1)C1CCCCC1	89	96	-26	.
O=c1c2cccnc2nc(SCc2cc(=O)n3cc(Cl)ccc3n2)n1CC1CCCO1 (stereo unspecified)	.	.	-28	95
COc1ccc(CCC(=O)NC2CC(=O)N(c3ccc(OC)cc3)C2)cc1 (stereo unspecified)	92	90	.	96
Cc1nc2ccn(Cc3cccnc3)c(=O)c2cc1C(=O)Nc1ccc(F)cc1F	95	90	.	99
Cc1ccccc1C(=O)N(Cc1sccc1C)C1CCS(=O)(=O)C1 (stereo unspecified)	109	85	-10	95
CCC(=O)OC1CSc2nc3ccccc3n2C1 (stereo unspecified)	121	104	-4	107
CC(=O)Oc1cc(C)c2c(c1)oc(=O)c1ccccc12	117	45	0	103
N=C(N)N=Nc1ccc(O)cc1	83	78	0	96
CC1(C(=O)NCc2ccc3c(c2)OCO3)CCN(C(=O)Nc2ccc(Br)cc2F)CC1	.	.	18	102
CC1CN(P2(=O)C=C(c3ccccc3)OC(c3ccccc3)=C2)CC(C)O1 (stereo unspecified)	74	71	-27	.
CCCCCn1c(=O)[nH]c2cc(C(=O)NCc3ccc(C)cc3)ccc2c1=O	108	95	-15	102
CCOc1ccc(/C=C/c2nc(C#N)c(NCc3ccccc3)o2)cc1	84	86	-6	102
CCCOc1cccc(C2c3c(oc4ccc(F)cc4c3=O)C(=O)N2CCCN2CCOCC2)c1 (stereo unspecified)	101	102	-12	104
N/N=C(\c1ccccc1)c1cc(Br)ccc1N	116	115	-9	106
Fc1cccc(Cl)c1-c1nn[nH]n1	110	90	-20	.
CC(C)NC(=O)c1ccc(NC2=NC3CS(=O)(=O)CC3S2)cc1 (stereo unspecified)	104	89	-19	101
CC(C)Cn1[nH]c(CC(=O)NN)cc1=O	94	86	-8	.
CCC(=O)c1ccc(OCC(=O)NC2(C#N)CCCCC2)cc1	78	86	23	.
CC1=C(C(=O)Nc2cccnc2)C(c2ccccc2Cl)n2nc(-c3ccccc3)nc2N1 (stereo unspecified)	103	81	-29	104
COc1ccc(NCC(=O)N/N=C/C2=CCC3CC2C3(C)C)cc1 (stereo unspecified)	95	94	-34	.
O=C(CSc1ncn[nH]1)Nc1ccccc1-c1ccccc1	94	93	10	.
CCOC(=O)c1[nH]c(C)c(S(=O)(=O)NC2CCCC2)c1C	.	.	-26	105
CSc1ccc(NC(=O)C2CCN(c3ncccn3)CC2)cc1	98	86	8	104
O=C(Cc1n[nH]c(=O)c2ccccc12)OCc1cc(=O)n2cc(Br)ccc2n1	81	92	-48	.
CC(C)Cn1c(=O)c2sccc2n2c(CCC(=O)N3CCC(C(N)=O)CC3)nnc12	.	.	-16	98
Cc1nc(N)sc1C	93	96	9	.

Screening results from PubChem.

The order is random; any-hit rate near 0.83%.
